Compound activity from PubChem BioAssay.
CtBP-E1A blk = inhibitors of CtBP/E1A interaction. AlphaScreen GST-E1A/His-CtBP binding, 1536-well; active compounds read low; control for the full effect not named in the record. 340,000 compounds, 0.49% hits. activity change, % (concentration not given with the values); in the data active means activity change below about -65%; inconclusive means about -30% to -65%; inactive means above about -30%; note: % is set by controls: 0 for no effect and ±100 for the full control effect
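In 5 uL wells, 23 nL compound meets equimolar GST-E1A and His-CtBP (5X stock 125 nM each) for 2 h, 37 °C. Beads (5X, 50 ug/mL) then 1 h, 37 °C, dark.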
TRPML1 inh = blocks the human TRPML1 channel; TRPML1-inducible cells, Ca2+ dye fluorescence, FDSS; active compounds read low; inhibition of EC80 agonist-evoked calcium signal; Q9GZU1; activity change, negative = inhibition, % (test concentration not listed); AID 624415; 390,000 compounds, 0.02% hits; in the data active means activity change below about -50%; inconclusive means about -30% to -50%; inactive means above about -30%;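 note: stimulus is agonist 54-4 at its EC80 concentration; % is set by controls: 0 for no effect and ±100 for the full control effect; compound concentration not given in the record; the text of the record puts the active cut at -80%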
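TRPML1-DL cells, Tet-induced overnight (~16 h, 37 °C) at 1,500 cells/well, were loaded with Ca8 no-wash dye plus quencher for 45-90 min at room temperature. Compounds were pinned during FDSS kinetic reading; agonist 54-4 at EC80 (4 uM final) then added.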
TRPML1 agonist = agonists of human TRPML1 channel | TRPML1-expressing cells, Ca2+ dye fluorescence, FDSS; host cell line not named in the record; reference of the full effect not given here | activation, % (test concentration not listed) | 410,000 compounds, 0.12% hits; in the data active = activation above about 50%; inconclusive = about 30% to 50%; inactive = below about 30%; note: 0% is about no effect; the text of the record puts the active cut at 80%
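In this qHTS format, compounds were pin-transferred onto Ca8-dye-loaded TRPML1-DL cells induced with Tet overnight, and intracellular Ca2+ fluorescence was recorded kinetically for 110 s after a 10 s baseline. A subsequent 4uM final 54-4 (EC80) addition followed by a second 110 s read served as the antagonist phase.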
TRPV1 PAM = human TRPV1 potentiation. TRPV1-expressing cells, Fluo-8 calcium influx, capsaicin EC20 potentiation; host cell line not named in the record; control for the full effect not named in the record. potentiation, % at 8.33 µM. 320,000 compounds, 0.02% hits; active means potentiation above 80%; inconclusive means 30% to 80%; inactive means below 30%; note: 0% is about no effect
Target sequence (Q8NER1 whole entry, looked up): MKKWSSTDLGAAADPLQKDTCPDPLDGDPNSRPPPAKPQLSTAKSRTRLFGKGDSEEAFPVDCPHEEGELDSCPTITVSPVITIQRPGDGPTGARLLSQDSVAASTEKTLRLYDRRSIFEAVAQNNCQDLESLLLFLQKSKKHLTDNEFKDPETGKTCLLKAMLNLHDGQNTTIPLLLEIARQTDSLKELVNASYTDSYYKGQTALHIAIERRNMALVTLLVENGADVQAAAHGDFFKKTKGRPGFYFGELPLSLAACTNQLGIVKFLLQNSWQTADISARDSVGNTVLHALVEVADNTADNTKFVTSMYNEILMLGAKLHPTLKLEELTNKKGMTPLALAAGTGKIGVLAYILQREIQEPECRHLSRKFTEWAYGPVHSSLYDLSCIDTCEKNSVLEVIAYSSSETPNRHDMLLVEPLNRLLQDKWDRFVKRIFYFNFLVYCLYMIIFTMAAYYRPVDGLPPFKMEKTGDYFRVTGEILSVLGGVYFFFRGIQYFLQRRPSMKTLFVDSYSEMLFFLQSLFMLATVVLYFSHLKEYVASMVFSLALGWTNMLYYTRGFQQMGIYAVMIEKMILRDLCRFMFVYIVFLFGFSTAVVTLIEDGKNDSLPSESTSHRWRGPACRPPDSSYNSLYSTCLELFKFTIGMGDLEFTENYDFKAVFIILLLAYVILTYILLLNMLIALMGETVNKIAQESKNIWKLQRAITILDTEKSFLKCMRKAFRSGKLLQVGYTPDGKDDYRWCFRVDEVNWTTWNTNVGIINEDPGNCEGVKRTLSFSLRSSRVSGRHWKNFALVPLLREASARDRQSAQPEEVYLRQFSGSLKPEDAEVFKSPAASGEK
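Fluo-8 calcium influx in TRPV1-expressing cells, kinetic read (ex 480/em 520 nm). Compound added and read 3 min for agonist activity, followed by capsaicin at EC20 final and 2 min further read for enhancement.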
Six1-Eya2 blk = blocks human Six1 binding to Eya2; AlphaScreen GST-Six1/His-Eya2 binding, biochemical; active compounds read low; control for the full effect not named in the record; activity change, % (no concentration beside the values); 360,000 compounds, 0.56% hits; in the data active = activity change below about -65%; inconclusive = about -30% to -65%; inactive = above about -30%; note: % is set by controls: 0 for no effect and ±100 for the full control effect
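GST-Six1 + His-Eya2 (5X stock: 250/500 nM); Tris pH 8.0, 300 mM NaCl, 0.05% BSA, 0.02% Tween 20; GSH donor/Ni acceptor beads; 1 h 37 °C dark; AlphaScreen readout.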
D2 potentiator = potentiates the human D2 dopamine receptor allosterically; AID 624464; potentiation, % (concentration not given with the values); 360,000 compounds, 0.23% hits; DiscoveRx D2 beta-arrestin cells, luminescence, 90 min; 100% = 57 uM dopamine signal; P14416; active = potentiation of 50% or more; inconclusive = 30% to 50%; inactive = 30% or less;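 note: tested on top of an EC20 dose of dopamine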
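PathHunter D2 cells, attached overnight at 37 deg C, received compound in DMSO plus dopamine at EC20 (50 nM final) for 90 min at 37 deg C. Beta-arrestin recruitment was read as luminescence after 1 h with detection reagent at ambient temperature.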
Starred values were filed as active, the others as inactive; ? = inconclusive; nt = no result given; & = joins results of further samples.

smiles,CtBP-E1A blk,TRPML1 inh,TRPML1 agonist,TRPV1 PAM,Six1-Eya2 blk,D2 potentiator
CCN(Cc1ccccc1)C(c1ccncc1)c1nnnn1C(C)(C)C (stereo not given),4,-7,0.7,-6,1,-5
Cc1ccccc1C(=O)N1CCC(C(=O)NCCc2ccc(S(N)(=O)=O)cc2)CC1,0,5,-1.0,4,5,2
Cc1ccc(F)c(S(=O)(=O)NC(=O)C2(C)CCN2C(=O)Cc2ccccc2Cl)c1 (stereo not given),-3,nt,-0.4,nt,9,-6
COc1ccc(NC(=O)CN2CCN(Cc3ccc4c(c3)OCO4)CC2)cc1OC,-2,-3,0.2,3,-4,-13
Cc1ccc(S(=O)(=O)Nc2cc(C(F)(F)F)ccc2N2CCOCC2)cc1,-4,12,?,-1,-6,-25
O=C(N/N=C/c1cccc(O)c1)c1ccc(NC(=O)C2CCCCC2)cc1,-8,10,0.7,2,-3,1
Cc1cc(NC(=O)CSc2nnc3c4c(C)c(C)sc4ncn23)no1,13,-4,0.7,8,-6,0
Cc1ccc(NC(=O)CN2CCCCCC2)cc1Br,1,1,-0.6,17,16,-7
Cc1c(Cl)cccc1NC(=S)N1CCCCCC1,-24,-2,1.3,-10,-13,-19
O=C(O)CCCCCn1c(SCc2cc(=O)n3ccccc3n2)nc2ccsc2c1=O,-20,24,3.4,6,-3,1
O=C(CNC(=O)c1cccs1)NCCN1CCN(Cc2ccccc2)CC1,6,-5,0.7,-7,0,-13
CCOC(=O)c1sc2nc(C)nc(SC(C)C(=O)N(C)c3ccccc3)c2c1C (stereo not given),4,4,1.4,-2,-5,-15
COc1ccc(NC(=O)c2ccc(CN3CCN(c4ccccc4)CC3)cc2)cc1OC,-9,-6,-0.5,9,-8,-6
Cc1ccc(S(=O)(=O)Nc2ccccc2NS(=O)(=O)c2ccc(C)cc2)cc1,2,nt,-1.3,nt,0,-1
COc1cc2c(cc1OC)CN(CC(=O)Nc1ccc(F)cc1)CC2,-10,8,-0.6,6,-5,-11
COc1ccccc1C(=O)N1[C@@H](C(C)C)COc2cc(Br)ccc2S1(=O)=O,4,0,-0.3,nt,-6,-7
O=C(Cc1ccccc1)N/N=C/c1ccc(OC(=O)/C=C\c2ccco2)cc1,-65*,-3,0.1,-4,?,14
CC(C)(C)NC(=S)N/N=C/c1cccnc1,-2,-20,-0.1,-14,-2,-11
CCOCCCNCc1ccc(OC)c(OC)c1,1,-1,0.8,12,1,-13
O=C(NC12CC3CC(CC(C3)C1)C2)N1CCN(C2CCCCC2)CC1,9,-7,-0.1,16,1,-3
CC(=O)c1ccc(N2CCC(C(=O)O)CC2)cc1,10,9,-0.5,-6,1,-5
Cc1cc(Cl)ccc1OC(C)C(=O)NCCc1ccc2c(c1)OCCO2 (stereo not given),nt,1,1.7,-12,5,-5
CCC(=O)N1CCN(c2ccc(NC(=O)COc3ccccc3Cl)cc2)CC1,5,12,2.1,4,-3,-2
COc1cccc(C2=NOC(C(=O)Nc3ccc(OC)c(OC)c3)C2)c1 (stereo not given),-5,-9,3.9,-25,-4,-11
Cc1ccc(C(=O)C(C)OC(=O)Cc2c[nH]c3ccccc23)cc1 (stereo not given),0,-5,1.9,6,-7,-27

Reprinted at random: 2 compounds from above
smiles,CtBP-E1A blk,TRPML1 inh,TRPML1 agonist,TRPV1 PAM,Six1-Eya2 blk,D2 potentiator
Cc1ccc(NC(=O)CN2CCCCCC2)cc1Br,1,1,-0.6,17,16,-7
Cc1cc(NC(=O)CSc2nnc3c4c(C)c(C)sc4ncn23)no1,13,-4,0.7,8,-6,0

Next part:
smiles,CtBP-E1A blk,TRPML1 inh,TRPML1 agonist,TRPV1 PAM,Six1-Eya2 blk,D2 potentiator
COC(=O)c1ccc(CNC(=O)C2CCC(=O)N(Cc3cccc(F)c3)C2)cc1 (stereo not given),-20,-6,0.5,-4,5,2
COc1cccc(N2C(=O)CN(Cc3ccccc3)C2=S)c1,7,nt,nt,-21,8,6
O=C(COC(=O)c1cc(Cl)nc(Cl)c1)NC1CCCCCC1,nt,28,0.1,nt,-4,2
CC(OC(=O)/C=C/c1ccccc1)C(=O)N1CCc2ccccc21 (stereo not given),-20,-14,2.2,-9,1,-3
O=C(C(c1ccccc1)c1ccccc1)N1CCN(c2ccccn2)CC1,3,-15,1.8,-10,-2,-10
COCCNC(=O)c1ccc(CSCc2cccc(Cl)c2)o1,nt,-23,1.6,19,-1,-9
CCCCn1c(N)c(N(CCOC)C(=O)CCC2CCCCC2)c(=O)[nH]c1=O,-13,-20,0.4,-16,17,-5
Cc1cccc(OCC(=O)Nc2sc3c(c2C#N)CCC3)c1,6,-5,-0.6,27,0,-2
CC1CCCCC1NC(=O)CN1CCC(NC(=O)c2cccc(F)c2)CC1 (stereo not given),0,0,-0.6,-2,-12,-13
CC(C)(C)[C@@H]1C=C(C(=O)O)[C@H](c2ccc(Cl)cc2)N1S(=O)(=O)c1ccccc1,-21,-8,0.8,nt,3,-3
Cc1oc(C(C)(C)C)cc1C(=O)NC1CCN(Cc2ccccc2)CC1,-3,-2,1.0,-16,-11,-20
CCOC(=O)CSc1nnc(Cn2nnc(-c3ccccc3)n2)n1CC,-1,-9,-0.4,7,3,2
COc1ccc(CC(NC(C)=O)C(=O)NC2CCN(C(=O)c3ccncc3)CC2)cc1OC (stereo not given),7,-5,1.2,5,8,-1
O=C(Cc1ccccc1)NCc1n[nH]c(=S)n1-c1ccc(Br)cc1,nt,8,0.6,0,0,-9
COc1ccc2nc(/C=N/NC(=O)CCNC(=O)OC(C)(C)C)ccc2c1,-19,-11,-0.6,5,-17,0
COc1ccc(S(=O)(=O)N2CCCOC2CNC(=O)C(=O)NCc2cccnc2)cc1 (stereo not given),9,-30,0.9,?,4,-10
COCCN(C(=O)CCC(=O)Nc1ccccn1)C(C(=O)NC(C)C)c1ccc(Cl)cc1 (stereo not given),7,-6,-0.5,14,2,1
C[n+]1ccc(/C=C/c2ccc(Br)cc2)cc1,2,5,-1.3,nt,-1,-10
Nc1ccc(C(=O)Nc2ccc(Nc3ccncc3)cc2)cc1,nt,-15,-0.5,16,11,-3
O=S(=O)(NC(=S)NC1CCCCC1)c1ccc(Br)cc1,-1,10,0.2,18,1,-34
Cc1ccc(NCc2ccccc2O)c(C)c1,-19,-12,0.7,5,-18,-4
CC(C)c1nc(SCC(=O)NC2CCCC2)c2ccccc2n1,3,15,-0.6,21,6,-1
COc1cc(C(=O)Nc2ccc3nc4n(c(=O)c3c2)CCCCC4)cc(OC)c1OC,-15,15&-8,1.6&1.1,-13,-6,12
O=C(NCC(O)c1ccccc1)Nc1cccs1 (stereo not given),-1,6,-0.1,-11,-1,-3
O=C(NC1CCCCC1)c1ccc(-c2cn[nH]c2)c2ccoc12,-26,nt,-0.8,nt,-26,-12
Cc1c2ccccc2nc2c(F)c(NCCO)c(F)c(F)c12,-12,11,5.5,-13,-10,?
NC(=O)NC(CC(=O)NNC(=O)c1cccs1)c1ccc(Cl)cc1 (stereo not given),-1,10,-0.3,nt,-10,-3
CCCCCc1c(C)nc(SCC(=O)O)[nH]c1=O,7,-6,-0.4,2,1,0
CC(=O)N1CCOc2ccc(S(=O)(=O)NCCc3cccc(C)c3)cc21,1,0,0.0,-1,-2,-29
COc1cc(OC)cc(-c2nnc(N(C)C(=O)c3ccncc3)s2)c1,nt,-7,1.4,-3,-2,-3
N#Cc1ccccc1OCC(=O)NCCNC(=O)COc1ccccc1C#N,-7,17,0.5,-2,2,-1
CCCC(=O)Nc1sc(C(=O)Nc2cccc(N)c2)c(C)c1C(=O)OC,-6,3,-0.5,4,-18,4
COC(=O)c1ccc(-c2csc(NC(=O)C3=COCCO3)n2)cc1,-5,4,0.4,nt,-22,5
Cc1cccnc1NS(=O)(=O)c1ccccc1,-24,-11,-0.1,nt,4,-5
COc1ccc2nc(SCC(=O)NC3CCCC3)c(C)cc2c1,-5,43,3.1,-19,8,-10
Cc1nn(Cc2cccc(C(=O)N3CCCC(C)C3)c2)c(C)c1[N+](=O)[O-] (stereo not given),1,32,-0.8,10,12,-4
Brc1ccc(-c2noc3c2-c2nc(C4CCCCC4)sc2CC3)cc1,-2,1,0.5,nt,17,-2
Cc1cc(/C=N\NC(=O)CC(=O)NC2CCCCC2)c(C)n1-c1cccc(Cl)c1Cl,-16,12,-0.1,8,-8,-21
CCC(C(=O)NC(C)(C)C)N(Cc1ccc(F)cc1)C(=O)c1snc(C(N)=O)c1N (stereo not given),-5,3,0.2,-7,2,-12
COc1cc(S(=O)(=O)NCC2COCCO2)ccc1-n1cnnn1 (stereo not given),-10,3,-0.1,6,-1,-1
O=C1c2cccc3cccc(c23)C(=O)N1CCCc1n[nH]c(=S)n1-c1ccccc1,1,-19,1.3,-2,0,2
O=C(CN1CCN(C(=O)C2CC2)CC1)Nc1ccc(Cl)cc1F,10,5,5.9,10,0,7
COc1ccccc1NC(=O)C1CCN(c2ncnc3c2nc2n3CCCCC2)CC1,-12,-2&30,3.5&0.6,-1,-4,-1
CC(C)C1N=C2c3ccccc3N=C(SCC#N)N2C1=O (stereo not given),7,-14,0.0,-6,4,-17
COc1ccccc1NS(=O)(=O)c1cc(NC(=O)COc2ccccc2)ccc1N1CCOCC1,1,9,0.2,nt,-15,23
O=[N+]([O-])c1cccc(-c2ccc(/C=N/Nc3nc(N4CCCCC4)nc(N4CCCCC4)n3)o2)c1,-23,46,0.8,-3,?,16
Cc1ccc(NC(=O)CSc2ncccn2)cc1S(=O)(=O)N1CCCCC1,-7,7,1.6,-6,1,-5
Cc1ccc(SCCC(=O)N(C)CC(=O)Nc2c(C)cccc2C)cc1,6,-8,-0.2,19,0,0
Cc1nc2c(C#N)c(-c3ccc(Cl)cc3)ccn2n1,3,3,-0.5,-4,2,0
COc1ccc(CCNC2CC(=O)N(C3CCCCC3)C2=O)cc1OC (stereo not given),8,-6,-0.6,-21,5,-26
O=c1ccsn1Cc1ccccc1,-4,4,2.0,-13,-15,-39

Gathered by group: the compounds so far containing a cyano group
smiles,CtBP-E1A blk,TRPML1 inh,TRPML1 agonist,TRPV1 PAM,Six1-Eya2 blk,D2 potentiator
Cc1cccc(OCC(=O)Nc2sc3c(c2C#N)CCC3)c1,6,-5,-0.6,27,0,-2
N#Cc1ccccc1OCC(=O)NCCNC(=O)COc1ccccc1C#N,-7,17,0.5,-2,2,-1
CC(C)C1N=C2c3ccccc3N=C(SCC#N)N2C1=O (stereo not given),7,-14,0.0,-6,4,-17
Cc1nc2c(C#N)c(-c3ccc(Cl)cc3)ccn2n1,3,3,-0.5,-4,2,0
